# Screening results: PubChem BioAssay, National Center for Advancing Translational Sciences (NCATS)
# D2 ag: agonists of human D2 dopamine receptor (beta-arrestin). P14416. DiscoveRx PathHunter D2 beta-arrestin, luminescence, 90 min; 100% = 57 uM dopamine signal. activation, % (test concentration not listed). actives 0.084% (n = 360,000). AID 624465; in the data active = activation above about 40%; inconclusive = about 15% to 40%; inactive = below about 15%; further: compound concentration not given in the record; the text of the record calls up to 30% inactive
# Target sequence (P14416 whole entry, looked up): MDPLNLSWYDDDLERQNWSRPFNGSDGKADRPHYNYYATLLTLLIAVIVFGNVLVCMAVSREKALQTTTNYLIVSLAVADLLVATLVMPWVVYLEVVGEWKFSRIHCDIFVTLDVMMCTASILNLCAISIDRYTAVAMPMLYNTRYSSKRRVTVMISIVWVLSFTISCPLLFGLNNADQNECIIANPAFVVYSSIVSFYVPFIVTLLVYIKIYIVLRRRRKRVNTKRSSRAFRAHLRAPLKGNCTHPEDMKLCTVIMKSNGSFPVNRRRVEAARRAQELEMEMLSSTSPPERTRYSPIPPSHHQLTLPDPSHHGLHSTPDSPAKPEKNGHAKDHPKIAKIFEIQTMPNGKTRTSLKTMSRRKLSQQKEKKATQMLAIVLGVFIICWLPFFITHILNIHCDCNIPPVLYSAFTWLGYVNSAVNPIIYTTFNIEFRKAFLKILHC
#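 DiscoveRx PathHunter D2 beta-arrestin cells (2,100/well) attached overnight, then compound-stimulated 90 min at 37 C in HBSS/10 mM HEPES/0.1% Tween-20 buffer; beta-galactosidase complementation read by luminescence after 1 h at ambient temperature. Dopamine 57 uM final (EC100) as control.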
# CtBP-E1A inh: CtBP/E1A binding inhibition; AlphaScreen GST-E1A/His-CtBP binding, 1536-well; active compounds read low; control for the full effect not named in the record; activity change, % (concentration not given with the values); actives 0.49% (n = 340,000); AID 651724; in the data active means activity change below about -65%; inconclusive means about -30% to -65%; inactive means above about -30%; further: on the % scale 0 is the no-effect control and ±100 the full control effect
#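 Protein mix (5X: 125 nM each GST-E1A, His-CtBP) was incubated with pinned compound 2 h at 37 deg C in dark, in 50 mM Tris pH 8.0 buffer with 300 mM NaCl. Glutathione donor and nickel acceptor beads followed; AlphaScreen signal read after 1 h.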
# D2 PAM: positive allosteric modulators of human D2 dopamine receptor | actives 0.23% (n = 360,000) | AID 624464 | potentiation, % (no concentration beside the values) | P14416 | DiscoveRx D2 beta-arrestin cells, luminescence, 90 min; 100% = 57 uM dopamine signal; active = potentiation of 50% or more; inconclusive = 30% to 50%; inactive = 30% or less;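 further: compound concentration not given in the record; tested on top of an EC20 dose of dopamine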
#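 PathHunter D2 cells, attached overnight at 37 deg C, received compound in DMSO plus dopamine at EC20 (50 nM final) for 90 min at 37 deg C. Beta-arrestin recruitment was read as luminescence after 1 h with detection reagent at ambient temperature.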
# TRPML1 agonist: activates the human TRPML1 channel. Q9GZU1. TRPML1-expressing cells, Ca2+ dye fluorescence, FDSS; host cell line not named in the record; reference of the full effect not given here. activation, % (test concentration not listed). actives 0.12% (n = 410,000). AID 624414; in the data active = activation above about 50%; inconclusive = about 30% to 50%; inactive = below about 30%; further: 0% is about no effect; the text of the record puts the active cut at 80%
# Target sequence (Q9GZU1 whole entry, looked up): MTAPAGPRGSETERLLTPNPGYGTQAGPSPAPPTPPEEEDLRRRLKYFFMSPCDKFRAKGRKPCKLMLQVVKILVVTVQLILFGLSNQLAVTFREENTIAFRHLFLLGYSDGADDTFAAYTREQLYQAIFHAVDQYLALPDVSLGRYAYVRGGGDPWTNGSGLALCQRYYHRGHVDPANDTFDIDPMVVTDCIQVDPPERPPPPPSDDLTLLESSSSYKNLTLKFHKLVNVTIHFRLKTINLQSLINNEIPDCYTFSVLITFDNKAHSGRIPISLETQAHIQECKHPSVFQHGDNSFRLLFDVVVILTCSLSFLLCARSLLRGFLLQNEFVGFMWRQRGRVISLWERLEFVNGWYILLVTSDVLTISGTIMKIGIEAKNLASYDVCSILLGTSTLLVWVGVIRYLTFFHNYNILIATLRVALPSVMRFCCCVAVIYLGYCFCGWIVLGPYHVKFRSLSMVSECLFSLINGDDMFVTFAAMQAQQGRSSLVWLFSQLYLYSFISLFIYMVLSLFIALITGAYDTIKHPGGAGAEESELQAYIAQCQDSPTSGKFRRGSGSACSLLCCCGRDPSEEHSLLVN
#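 Cells: TRPML1-DL, 1X Tet inducer, ~16 h at 37 degrees C/5% CO2. Dye: ABD Ca8 no-wash + quencher, 45-90 min RT. Read: 10 s baseline, compound add, 110 s agonist phase; 54-4 EC80 (4uM final), 110 s antagonist phase.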
# Six1-Eya2 blk: blocks human Six1 binding to Eya2 | Q15475+O00167 | AlphaScreen GST-Six1/His-Eya2 binding, biochemical; active compounds read low; control for the full effect not named in the record | activity change, % (test concentration not listed) | actives 0.56% (n = 360,000) | AID 651725; in the data active = activity change below about -65%; inconclusive = about -30% to -65%; inactive = above about -30%; further: on the % scale 0 is the no-effect control and ±100 the full control effect
#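 AlphaScreen luminescence read after one hour at 37 °C in darkness. Pin-transferred compounds met GST-Six1 and His-Eya2 protein (5X stock 250 nM/500 nM) plus glutathione donor and Ni-chelate acceptor beads (5X, 50 ug/mL).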
# PINK1 modulator: modulators of PINK1 expression. actives 0.2% (n = 410,000). AID 624263. PINK1 immunofluorescence, high-content cytometry, 24 h. Potency, µM (doses to about 76.6 µM), for the others: at the highest dose activation (PINK1 increase), actives largely listed as activators; active = well fitted activation curve with a large enough effect; inconclusive = small, poorly fitted or top-dose-only effect; inactive = flat fitted curve, though single readings scatter; cell line not stated here;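 further: potency means the concentration at half of the fitted maximal effect; % of control where 0% means no effect; nearly all actives have a fitted effect of over 65% in size; a mitochondrial uncoupler was the plate control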
#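 PINK1 protein, normally rapidly degraded, was detected by immunofluorescence after 24 hour compound treatment of a stable cell line. Titration data (5 concentrations) came from laser-scanning cytometry, with CCCP-treated wells as controls.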
# Active calls of the source: *; ? = inconclusive; · = no result given; [ ] = remark or other dose.
SMILES,D2 ag,CtBP-E1A inh,D2 PAM,TRPML1 agonist,Six1-Eya2 blk,PINK1 modulator
CC(C(=O)Nc1ccccc1Br)c1ccc([N+](=O)[O-])cc1 (configuration not stated),-0.3,·,-12,-0.4,6,1.0%
COc1ccc2cc(C(=O)C3CCCN(C(=O)Cc4c(C)noc4C)C3)ccc2c1 (configuration not stated),7.0,5,6,0.5,-4,0.6%
CCCCN(CC)S(=O)(=O)c1c(C)[nH]c(=O)[nH]c1=O,-1.0,2,-5,-0.8,7,-1.0%
CCOC(=O)c1ccc(NC(=O)c2nc[nH]c2C(=O)N[C@H](C)c2ccccc2)cc1,0.0,·,-5,0.1,7,12%
CCn1c(=O)c2cc(C(=O)N(C)c3ccc(OC)cc3OC)sc2c2ccccc21,4.2,-22,-4,-0.4,-24,-0.8%
COc1ccc(NC(=O)N(C)C[C@H]2Oc3ccc(NC(=O)CCN4CCOCC4)cc3C(=O)N([C@@H](C)CO)C[C@H]2C)cc1,-0.8,2,0,-0.4,0,-1.7%
Cc1cc(-n2c(C)cc(C(=O)COc3ccccc3[N+](=O)[O-])c2C)no1,0.3,-18,-13,0.2,-19,4.6%
COC(CNC(=O)C1CCCCC1C(=O)O)OC (configuration not stated),-0.2,-9,-9,0.0,1,2.0%
O=C(NCCN1CCN(Cc2ccccc2)CC1)Nc1cc(Cl)cc(Cl)c1,-0.6,·,-30,0.6,0,2.1%
COc1ccc(-c2cc3ccccc3oc2=O)cc1NC(=O)c1cccnc1,-1.6,-6,-10,-0.1,-2,3.4%[38.3 µM]
COc1cccc(Oc2nnnn2-c2ccccc2)c1,0.2,9,-1,0.1,14,·
Brc1ccc(-c2csc(N/N=C/c3cccnc3)n2)cc1,?,-2,5,0.3,-6,4.7%
COc1ccc(CNC(=O)CCCn2nc([N+](=O)[O-])cc2C)cc1,-7.0,-1,-12,-0.8,0,1.2%
Cn1c(SCc2nn[nH]n2)nc2c1c(=O)n(Cc1ccccc1Cl)c(=O)n2C,-0.9,-10,-8,0.4,-7,25%[38.3 µM]
NC(=O)CSc1nnc(-c2ccco2)n1-c1ccc(F)cc1,-4.2,-6,-24,0.1,7,0.3%
CCCCCn1c(=S)[nH]c2cc(C(=O)N3CCN(C(=O)OCC)CC3)ccc2c1=O,-2.2,1,-10,-0.5,26,2.7%
Cc1ccc2c(c1)C(=O)C(=O)N2CC(=O)Nc1ccccc1NC(=O)c1ccccn1,-6.6,-2,-21,3.2,-4,2.6%
COc1ccc(CSc2nc(CSC)cc(N3CCOCC3)n2)cc1,1.3,13,-3,0.4,-19,-2.6%[38.3 µM]
CN(Cc1ccccc1)S(=O)(=O)CCNC(=O)c1ccc2c(c1)OCO2,-1.8,3,-25,3.2,-4,-1.3%
O=[N+]([O-])c1ncccc1Oc1nc(-c2cccnc2)nc2ccccc12,-1.9,0,-6,0.9,-8,2.0%
Fc1cccc(Cc2c(-c3cccc(Cl)c3)nc3c4ccccc4ccn23)c1,-5.0,6,-9,0.5,7,0.9%
COc1ccc(C(=O)Nc2cccc(S(=O)(=O)N3CCCC3)c2)cc1S(=O)(=O)N1CCOCC1,2.4,-8,-3,-0.6,-10,0.3%
Cc1cc(=O)n(CC(C)C)c(O)c1C#N,10,-1,22,1.1,11,0.6%
CC(=O)Nc1nc(=O)c2ccccc2s1,-1.8,2,-6,1.2,0,2.2%[38.3 µM]
O=c1c2ccccc2ncn1CCCCOc1ccc(Br)cc1,-2.6,·,0,1.4,-5,2.5%
# Carrying on:
SMILES,D2 ag,CtBP-E1A inh,D2 PAM,TRPML1 agonist,Six1-Eya2 blk,PINK1 modulator
CCOC(=O)CSC(=S)NC(=O)c1ccc(OC)cc1,-1.0,25,11,-0.2,7,?
COc1cc(NC(=O)Cc2ccccc2)ccc1NC(=O)c1ccco1,-0.2,-10,-10,0.5,-8,-2.1%
COc1ccccc1C(=O)NC(CCSC)C(=O)OC(C)C(=O)NC1CC1 (configuration not stated),-4.3,-8,-2,0.7,0,-3.9%
Cc1sc(NC(=O)Cn2c(=O)oc3ccccc32)nc1-c1ccc(Cl)cc1,1.9,-4,4,0.4,11,0.5%
COCCCn1c(SCC(=O)NCc2ccccc2)nc2ccccc2c1=O,2.0,7,2,0.5,-1,·
Cc1cc(C)nc(SCc2cn3ccccc3n2)n1,-0.1,·,10,3.2,0,-0.2%
CC(=O)c1ccc(NC(=O)C(C)OC(=O)c2ccc(NS(=O)(=O)c3ccc4[nH]c(=O)[nH]c4c3)cc2)cc1 (configuration not stated),-1.3,-12,-3,2.1,5,0.1%
CCN(CC)C(=O)c1cccc(-c2csc(C(O)c3ccco3)n2)c1 (configuration not stated),-3.2,-2,-3,0.4,-4,6.6%
CC(=O)Nc1ccc(N2CCN(c3ccc(C(F)(F)F)cn3)CC2)nc1,2.2,8,-2,0.2,-7,5.4%
COc1ccccc1C(=O)NC(=O)COC(=O)c1ccc(C)o1,-1.3,4,1,0.5,7,-2.7%
Cc1cc(C)nc(/N=C(/NC(=O)Nc2ccc(Cl)c(Cl)c2)Nc2cccc(Cl)c2)n1,-11,-6,-1,2.4,-11,-0.4%
S=C(NCC1(c2ccccc2)CCCC1)Nc1ccccc1,-0.2,-5,-4,?,0,-0.4%
CCC(Sc1nc2n[nH]c(C)c2c(=N)n1-c1ccc(C)c(Cl)c1)C(=O)N1CCOCC1 (configuration not stated),-1.7,1,21,1.1,2,9.3%
C#CCNC(=O)C1=C[C@H](c2ccc3c(c2)OCO3)C[C@H](OCc2ccc(CO)cc2)O1,0.7,-1,0,0.6,3,-1.5%
C/C(=N/NC(N)=S)c1ccc(Br)s1,5.3,0,-8,0.8,-2,-0.8%
COC(=O)COc1ccc(S(=O)(=O)Nc2ccc(NC(C)=O)cc2)cc1C,2.4,9,5,0.1,12,3.3%
O=C(Nc1cccc(F)c1)Nc1ccc2c(c1)CCC2,-0.8,7,5,0.3,-3,12%
COc1cc(C(=O)Nc2ccc(C(=O)O)cc2)ccc1OC(C)=O,-19,2,-10,0.9,5,-1.2%
Nc1nc(CSc2nc3ccccc3[nH]2)nc(N2CCOCC2)n1,-2.5,7,-7,-1.2,6,-1.6%
O=C(Cc1cccs1)Nc1ccccc1,-3.9,·,-17,·,3,-0.5%
Clc1cc(Br)ccc1OCCCNCc1ccccc1,-3.7,10,-37,0.0,19,-0.9%
COCC(=O)Nc1c(C(=O)Nc2ccc3c(c2)OCCO3)oc2ccccc12,1.1,-1,2,2.3,-1,-0.3%
O=C(CN1C(=O)NC2(CCCCCCC2)C1=O)Nc1ccc(Cl)cc1,-0.4,2,-1,2.4,3,1.7%
CCOP(=O)(OCC)c1nc(-c2ccccc2)oc1N1CCCCC1,2.4,·,-3,-0.1,-8,0.4%
COc1ccc(-c2cc(Cl)cc3c(=O)c4ccccc4n(C)c23)cc1F,-8.4,32,-11,0.7,20,4.5%

# The last four compounds of the part before lead into the next.
SMILES,D2 ag,CtBP-E1A inh,D2 PAM,TRPML1 agonist,Six1-Eya2 blk,PINK1 modulator
COCC(=O)Nc1c(C(=O)Nc2ccc3c(c2)OCCO3)oc2ccccc12,1.1,-1,2,2.3,-1,-0.3%
O=C(CN1C(=O)NC2(CCCCCCC2)C1=O)Nc1ccc(Cl)cc1,-0.4,2,-1,2.4,3,1.7%
CCOP(=O)(OCC)c1nc(-c2ccccc2)oc1N1CCCCC1,2.4,·,-3,-0.1,-8,0.4%
COc1ccc(-c2cc(Cl)cc3c(=O)c4ccccc4n(C)c23)cc1F,-8.4,32,-11,0.7,20,4.5%
CCN(CC)S(=O)(=O)c1cc(NC(=O)NCCCl)ccc1C,2.2,10,0,0.4,0,1.9%
O=C(c1cccs1)N1CCc2c([nH]c3ccccc23)C1c1ccccn1 (configuration not stated),0.0,-28,-4,1.6,-9,1.8%
Cc1nc2ccc(NC(=S)NC(C)C)cc2nc1C,-0.3,-2,-8,-0.5,1,-0.2%
Nc1cc2c3ccccc3ccc2c2ccccc12,0.3,10,-1,0.7,5,0.7%
CNc1cc(-c2cccc(N(C)C)c2)ncn1,3.5,-16,3,-0.8,5,0.3%
CC(C)(C)N1C(=O)[C@H]2[C@@H](c3ccc(Br)cc3)N3C(=O)N(c4cccc(F)c4)C(=O)[C@@]3(C)[C@H]2C1=O,-2.5,-1,-12,-0.1,-3,0.6%
Cc1ccc(-c2ccc(SCC(=O)NC3CCCCC3)nn2)cc1,1.2,0,-8,0.3,9,7.3%
Cc1ccc(NC(=O)CS(=O)CC(=O)N(c2ccc(C)cc2)C(C)C(=O)NC2CCCCC2)cc1 (configuration not stated),-4.5,-5,-24,0.7,0,-1.3%
Cc1nc2ccccn2c1C(=O)N/N=C/c1ccccc1[N+](=O)[O-],-3.5,0,-4,-0.2,21,6.5%[38.3 µM]
Oc1[nH]c2ccccc2c1N=Nc1c(F)c(F)c(Cl)c(F)c1F,-4.3,·,-14,0.7,1,?
CCC(C)Nc1nc2c(C)cccn2c(=O)c1C=Nc1ccc(OC)cc1 (configuration not stated),-3.3,·,-5,0.7,-2,15%
CC[N+](C)(CC)CCC/C(=N/O)C(O)(c1ccccc1)c1ccccc1,0.0,2,-6,-0.1,5,1.5%
COc1ccc2c(c1)OC[C@H]1[C@H]2N2C(=O)c3ccc(F)cc3NC(=O)[C@@]2(C)[C@H]1c1ccccc1,-2.2,-1,-48,0.2,-12,7.4%
Cc1[nH]c(=O)[nH]c(=O)c1N1CCOCC1,-1.0,8,-7,·,-1,-0.5%
Cc1ccc(NC(=O)NNC(=O)c2ccc3c(c2)NC(=O)C(C)(C)O3)cc1,-0.8,11,-4,0.4,3,0.5%
Cn1c(SC2=CS(=O)(=O)c3ccccc32)nc2ccccc21,-3.7,1,-18,1.3,21,-4.4%
CNc1ccc(Oc2nc([N+](=O)[O-])nn2C)cc1,2.0,0,15,-1.7,-18,0.1%
CCc1ccc(NC(=O)NCCN2CCN(c3ccc(OC)cc3)CC2)cc1,-4.1,·,-4,-0.8,-16,-0.7%
CC(C)N=C(NS(=O)(=O)c1cccs1)c1ccccc1,-0.2,5,1,-0.5,7,-0.5%
CCCCc1ccc(NC(=O)CSc2nc3ncccc3[nH]2)cc1,-0.7,·,0,-0.4,1,4.4%
C=CCNC(=S)Nc1sc2c(c1C#N)CCCC2,-4.2,-9,-6,-0.1,?,2.1%
CCN(CC(=O)Nc1ccc(NC(C)=O)cc1)C(=O)CCN1C(=O)c2cccc([N+](=O)[O-])c2C1=O,5.8,-5,?,0.7,4,3.9%
CC(C)CC(=O)N1CCC(N2CCN(c3ccccc3)CC2)CC1,?,1,?,-0.5,3,-1.0%
Cc1ccc(CCNC(=O)c2cc(S(=O)(=O)N3CCOCC3)cn2C)cc1,-5.6,-13,-7,-0.3,0,1.3%
O=C(O)CCn1c(O)c(C=C2N=c3ccccc3=N2)sc1=S,-4.3,9,-12,-0.7,-16,2.5%
O=C(NC(=S)Nc1ccc2[nH]c(=O)[nH]c2c1)c1ccccc1F,-2.2,-1,-11,-0.4,-2,4.2%
O=C(COC(=O)c1cccc(Br)c1)Nc1cccc2c1C(=O)c1ccccc1C2=O,5.1,-16,3,1.9,-8,-2.3%
CC(CCCC(C)(C)O)NCCO (configuration not stated),-3.1,2,-3,-0.5,-4,·
